# Screening results: PubChem BioAssay, Broad Institute
# rRNA inh HTS: inhibitors of bacterial rRNA selective over humanized ribosomes; GFP signal change (wild-type ribosome), % (test concentration not listed); E. coli WT GFP vs humanized-ribosome RFP mutants, fluorescence, 24 h; hits give low values; DMSO median 0, no signal -100; AID 720706; actives 1.6% (n = 350,000);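 active = significant combined selectivity score with lowered wild-type GFP, culture density cut under 30%, mutant RFP and density less affected; inactive = any of these conditions unmet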; also: one replicate is shown; some compounds called inactive have numbers as strong as hits
# MLL AF4-AF9 inh: blocks AF4 peptide binding to human AF9 | P42568 | AID 651704 | actives 0.47% (n = 350,000) | inhibition, % at 10 µM | AlphaScreen, biotin-AF4 peptide binding to FLAG-AF9;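 active = every replicate reaching a set inhibition limit, whatever the replicate mean, cut at about 25% in these data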;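 also: 0% = plate neutral control median and 100% = total signal loss; the record names both 10 and 1 µM as test concentration; the first replicate is given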
# Target sequence (P42568 whole entry, looked up): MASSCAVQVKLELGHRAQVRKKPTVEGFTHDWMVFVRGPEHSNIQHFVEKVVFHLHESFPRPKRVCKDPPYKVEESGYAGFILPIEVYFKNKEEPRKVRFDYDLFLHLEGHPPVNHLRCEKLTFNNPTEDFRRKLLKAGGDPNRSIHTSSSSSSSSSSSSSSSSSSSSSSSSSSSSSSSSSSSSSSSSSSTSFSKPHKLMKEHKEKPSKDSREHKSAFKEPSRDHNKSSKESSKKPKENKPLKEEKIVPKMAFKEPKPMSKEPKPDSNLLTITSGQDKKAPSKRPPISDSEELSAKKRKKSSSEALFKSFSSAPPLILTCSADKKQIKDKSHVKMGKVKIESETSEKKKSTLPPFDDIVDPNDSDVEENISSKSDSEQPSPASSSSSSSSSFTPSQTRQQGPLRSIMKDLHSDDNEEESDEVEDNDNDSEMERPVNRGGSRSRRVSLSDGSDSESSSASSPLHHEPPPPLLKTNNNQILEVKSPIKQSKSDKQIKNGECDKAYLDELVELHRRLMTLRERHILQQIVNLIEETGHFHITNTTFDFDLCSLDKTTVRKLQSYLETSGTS
# rRNA inh HTS OD600: recorded beside rRNA inh HTS, whose call it bears; OD600 change, %; measured here: OD600 growth;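 optical density of the mix in the first replicate; 0 = DMSO median and -100 = no signal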
# rRNA inh HTS RFP: recorded beside rRNA inh HTS, whose call it bears; RFP signal change, %; measured here: RFP humanized mutant strains;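 first replicate; 0 = DMSO median and -100 = no signal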
# * marks the source's active call; other numbers are inactive results; & = joins results of further samples. Not all compounds are listed; count on the stated rates, not on these rows.
SMILES,rRNA inh HTS,rRNA inh HTS OD600,rRNA inh HTS RFP,MLL AF4-AF9 inh
CCS(=O)(=O)N1CC(=O)N2[C@@H](CO)[C@H](c3ccc(C#CC4CCCC4)cc3)[C@@H]2C1,2.0,-6.5,2.8,3.9
Cc1cccc(-c2ccc([C@H]3[C@@H](CO)N4CCCCN(S(=O)(=O)c5ccccc5C)C[C@@H]34)cc2)c1,2.0,8.0,0.1,-2.7
O=C(C1CCOCC1)N1C[C@@H]2[C@H](c3ccccc31)[C@@H](CO)N2C(=O)Cc1ccccc1,-0.3,5.8,-2.2,-1.3
CCS(=O)(=O)N1CCCCN2[C@H](C1)[C@@H](c1ccc(C#CC(C)(C)O)cc1)[C@@H]2CO,3.2,6.8,-2.3,-7.2
C[C@@H]1CN([C@H](C)CO)C(=O)c2cccc(NC(=O)Nc3ccccc3)c2O[C@H]1CN(C)C(=O)NC1CCCCC1,-3.2,2.7,-2.6,-6.6
COCC(=O)N(C)C[C@@H]1Oc2ncc(/C=C/c3ccccc3)cc2C(=O)N([C@@H](C)CO)C[C@@H]1C,1.2,16.6,0.9,-2.7
CN(C)C(=O)c1cccc(-c2ccc([C@@H]3[C@H]4CN(C(=O)C5CCCC5)CC(=O)N4[C@H]3CO)cc2)c1,0.1,-1.9,0.3,-0.8
CN1CCN(C(=O)C[C@@H]2C[C@H]3c4cc(NC(=O)C5CCOCC5)ccc4O[C@H]3[C@@H](CO)O2)CC1,3.2,6.2,-0.6,1.0
C[C@@H]1CCCCO[C@H](CN(C)Cc2ccc3c(c2)OCO3)[C@@H](C)CN([C@H](C)CO)C(=O)c2cc(NC(=O)C3CCCCC3)ccc2O1,1.4,1.4,-2.9,-7.0
CNC[C@@H]1Oc2ccc(NC(=O)Nc3c(C)noc3C)cc2CC(=O)N([C@H](C)CO)C[C@@H]1C,3.3,1.8,-1.9,-0.7
OC[C@H]1O[C@@H](c2nc3ccc(-c4nc(-c5ccc(Br)cc5)no4)cc3[nH]2)C[C@@H]1O,-43.2,-60.2,-5.8,-12.9
C[C@H]1CN([C@@H](C)CO)C(=O)CCCn2cc(nn2)CO[C@@H]1CN(C)Cc1cccc(C(=O)O)c1,-2.2,9.8,-0.9,-18.5
CCC(=O)Nc1ccc2c(c1)C(=O)N(C)C[C@@H](OC)[C@H](C)CN(Cc1ccccc1F)[C@H](C)CO2,-4.8,-4.8,3.3,7.3
C[C@@H]1CN([C@@H](C)CO)C(=O)c2cc(NS(=O)(=O)c3cn(C)cn3)ccc2O[C@H]1CN(C)Cc1ccc(C(F)(F)F)cc1,-9.2,-1.7,1.8,-2.4
CC(=O)N(Cc1cccc(F)c1)C[C@H]1[C@@H](c2ccccc2)[C@@H](CO)N1C(C)=O,-2.3,2.9,-0.7,-2.3
CC(=O)c1cccc(NC(=O)c2cccc3c(-c4cnn(C)c4)coc23)c1,0.7,-9.0,-5.1,-0.7
C[C@@H]1CCCCO[C@@H](CN(C)C(=O)Nc2ccc(C(F)(F)F)cc2)[C@H](C)CN([C@H](C)CO)C(=O)c2cc(NC(=O)Nc3ccccc3)ccc2O1,2.5,6.1,0.5,-2.5
O=C(c1ccccn1)N1CC[C@@H]2[C@H]1c1cc(Br)ccc1N[C@@H]2CO,6.4,22.6,-1.1,-4.2
C[C@H](CO)N1C[C@H](C)[C@H](CN(C)Cc2ccc3c(c2)OCO3)Oc2c(NS(C)(=O)=O)cccc2C1=O,5.6,12.0,-0.4,-0.9
O=C(Nc1cc(F)ccc1F)N[C@@H]1CC[C@@H](CCNC(=O)c2cnccn2)O[C@@H]1CO,3.5,5.8,-2.7,-5.9
COCC(=O)Nc1ccc2c(c1)C(=O)N(C)[C@@H]1CC[C@@H](CC(=O)NCCCN(C)C)O[C@H]1CO2,3.0,4.4,-1.5,2.4
CC(C)c1cn(CC[C@@H]2CC[C@H](NC(=O)Nc3cc(Cl)cc(Cl)c3)[C@H](CO)O2)nn1,-16.2,-39.8,7.4,-0.8
COc1ccc2c3c([nH]c2c1)[C@H](CO)N(C(=O)CN1CCOCC1)CC31CCN(Cc2ccccc2)CC1,4.2,1.0,-1.3,5.5
Cc1noc(C)c1NC(=O)N(C)C[C@@H]1Oc2ncc(/C=C/c3ccccc3)cc2C(=O)N([C@H](C)CO)C[C@H]1C,4.7,6.3,-0.6,2.2
CCC(=O)Nc1ccc2c(c1)C(=O)N(C)C[C@H](OC)[C@@H](C)CN(C(=O)C1CC1)[C@@H](C)CO2,1.3,0.6,-0.3,-0.6
CCCC(=O)Nc1ccc2c(c1)C(=O)N(C)C[C@@H](OC)[C@@H](C)CN(C(=O)C1CCCC1)[C@H](C)CO2,-0.6,8.4,0.1,-0.8
CSCCC(NS(=O)(=O)Cc1ccccc1)C(=O)NNc1ccccc1 (configuration not stated),7.8,8.3,-2.0,-1.3
CN(C)C(=O)C[C@@H]1CC[C@H](NC(=O)NC2CCCCC2)[C@@H](CO)O1,-0.4,0.9,0.3,1.1
O=C(C1CCCC1)N1CC(=O)N2[C@@H](CO)[C@@H](c3ccc(C#CC4CCCC4)cc3)[C@@H]2C1,-35.9,-65.9,12.3,3.2
C[C@@H](O)C#Cc1cnc2c(c1)C(=O)N([C@@H](C)CO)C[C@H](C)[C@H](CN(C)Cc1cccc(F)c1)O2,0.9,-9.8,-1.2,-3.7
C[C@H](CO)N1C[C@H](C)[C@@H](CN(C)C(=O)C2CCOCC2)Oc2ncc(C3=CCCCC3)cc2C1=O,7.0,10.5,-4.5,-1.3
COc1ccc(NC(=O)Nc2ccc3c(c2)C(=O)N([C@H](C)CO)C[C@H](C)[C@H](CN(C)CC2CCCCC2)OCCCC[C@@H](C)O3)cc1,4.2,-4.0,9.0,-2.6
O=C(C[C@@H]1CC[C@H](NC(=O)CN2CCOCC2)[C@@H](CO)O1)NC1CCC1,0.8,7.4,1.7,-3.9
C[C@@H]1CN([C@H](C)CO)S(=O)(=O)c2ccc(C3=CCCC3)cc2O[C@H]1CN(C)C(=O)C1CCOCC1,-4.3,-11.9,-0.2,-1.3
CO[C@H]1CN(C)C(=O)c2ccc(NC(=O)C3CC3)cc2OC[C@H](C)N(C(=O)c2ccccc2)C[C@@H]1C,0.8,1.9,0.0,-0.6
C/C=C/c1ccc(C2[C@H]3CNC[C@@H]2N3S(=O)(=O)c2ccc(C)cc2)cc1 (some centres not stated),0.5&-59.1,16.4&-77.2,0.9&-12.7,-1.4&-3.2
CN(C)C(=O)C[C@@H]1CC[C@@H]2[C@@H](COc3ccc(NS(=O)(=O)c4cccc(F)c4)cc3C(=O)N2C)O1,2.0,3.5,-3.0,-0.9
COc1ccc(NC(=O)CN2C(=O)NC3(CCCC3)C2=O)cc1S(=O)(=O)N1CCCCC1,1.0,10.8,-0.4,-3.0
COc1ccc(C#Cc2ccc([C@@H]3[C@H](CO)N4C(=O)CN(C(=O)c5ccccc5)C[C@@H]34)cc2)cc1,-26.4,-53.8,6.2,-8.3
Cc1ccc(S(=O)(=O)N2CCN(c3nc(-c4cccs4)nc4ccccc34)CC2)cc1,21.0,7.2,1.2,0.2
CCCN1[C@H](C(=O)N[C@@H](C)c2ccccc2)[C@@H](CO)[C@@H]2Cn3c(ccc(-c4ccccc4)c3=O)[C@@H]21,-15.6,-42.0,13.9,2.9
C[C@@H]1CCCCO[C@@H](CN(C)CC2CCCCC2)[C@H](C)CN([C@H](C)CO)C(=O)c2cc(NC(=O)Nc3ccccc3)ccc2O1,5.0,-25.1,18.7,7.8
CCCC(O)C#Cc1cnc2c(c1)C(=O)N([C@H](C)CO)C[C@H](C)[C@H](CN(C)C(=O)NC(C)C)O2 (some centres not stated),5.4,9.6,-2.3,-1.3
Cc1noc(C)c1NC(=O)N(C)C[C@H]1Oc2cc(C#CCC(C)C)ccc2S(=O)(=O)N([C@@H](C)CO)C[C@H]1C,-1.8,-9.0,-1.4,1.1
O=C(NC1CCCCC1)N[C@H]1CC[C@@H](CCNS(=O)(=O)c2ccccc2)O[C@@H]1CO,-0.1,-4.3,-2.2,-0.1
CNC[C@@H]1Oc2ccc(NC(=O)Cn3cnnn3)cc2C(=O)N([C@H](C)CO)C[C@H]1C,1.7,3.3,-0.8,-0.8
CN1CCN(C(=O)c2ccc(NC(=O)c3ccc(Br)o3)cc2)CC1,2.1,11.9,-3.4,-5.7
C[C@H](CO)N1C[C@H](C)[C@H](CN(C)C(=O)[C@H]2CCCN2C)OCc2ccccc2-c2c(n(C)c3ccccc23)C1=O,-2.3,-0.5,-3.8,1.7
CCCN(C)C[C@@H]1Oc2cc(-c3cccc(C#N)c3)ccc2S(=O)(=O)N([C@H](C)CO)C[C@@H]1C,0.5,5.8,-0.6,1.1
Cn1cnc(CCNC(=O)C[C@@H]2CC[C@@H]3[C@H](COC[C@@H](O)CN3C(=O)Nc3ccc(Cl)cc3)O2)c1,-33.8,-49.2,10.8,2.3
C[C@@H]1CN([C@@H](C)CO)C(=O)Cc2cc(NS(=O)(=O)c3ccccc3)ccc2O[C@H]1CN(C)Cc1ccc(Oc2ccccc2)cc1,-0.6,-8.8,13.8,2.4
CN1CCN(C(=O)C[C@@H]2CC[C@@H]3[C@H](COc4ccc(NC(=O)c5cccs5)cc4C(=O)N3C)O2)CC1,2.5,4.5,-4.0,-2.2
Cc1noc(C)c1NC(=O)Nc1ccc2c(c1)C(=O)N([C@@H](C)CO)C[C@H](C)[C@H](CN(C)C(=O)Nc1ccc(F)cc1)O2,-2.8,4.9,-0.5,6.7
O=C(C[C@@H]1CC[C@H](NC(=O)Nc2ccc(F)cc2)[C@H](CO)O1)NCc1ccccn1,3.6,-1.9,-0.9,-0.7
O=C(Nc1cccc(Cl)c1)N[C@H]1CC[C@H](CCNC(=O)C2CCOCC2)O[C@H]1CO,-0.6,4.5,-1.1,-0.7
C[C@@H]1CCCCO[C@@H](CN(C)Cc2ccc(Cl)c(Cl)c2)[C@@H](C)CN([C@@H](C)CO)C(=O)c2cc(NS(C)(=O)=O)ccc2O1,0.8,-29.4,4.9,6.3
C[C@H]1CN([C@@H](C)CO)C(=O)Cc2cc(NC(=O)CCN3CCOCC3)ccc2O[C@H]1CN(C)C(=O)Nc1ccc2c(c1)OCO2,3.6,6.1,-4.0,0.2
O=C(C[C@@H]1CC[C@H](NC(=O)C2CCOCC2)[C@@H](CO)O1)Nc1nccs1,4.9,3.2,-1.9,-0.1
C/C=C/c1ccc([C@@H]2[C@H](C#N)N(C(=O)c3cccnc3)[C@H]2CO)cc1,3.6,10.8,2.4,0.4
CCc1nc2c(OCc3ccc(F)cc3)cccn2c1N(C)C(=O)c1ccncc1,-5.9,1.4,0.9,-1.3

# Four compounds drawn at random from those above:
SMILES,rRNA inh HTS,rRNA inh HTS OD600,rRNA inh HTS RFP,MLL AF4-AF9 inh
C[C@H]1CN([C@@H](C)CO)C(=O)Cc2cc(NC(=O)CCN3CCOCC3)ccc2O[C@H]1CN(C)C(=O)Nc1ccc2c(c1)OCO2,3.6,6.1,-4.0,0.2
CCc1nc2c(OCc3ccc(F)cc3)cccn2c1N(C)C(=O)c1ccncc1,-5.9,1.4,0.9,-1.3
CNC[C@@H]1Oc2ccc(NC(=O)Cn3cnnn3)cc2C(=O)N([C@H](C)CO)C[C@H]1C,1.7,3.3,-0.8,-0.8
C[C@@H]1CCCCO[C@@H](CN(C)CC2CCCCC2)[C@H](C)CN([C@H](C)CO)C(=O)c2cc(NC(=O)Nc3ccccc3)ccc2O1,5.0,-25.1,18.7,7.8

# Next entries
SMILES,rRNA inh HTS,rRNA inh HTS OD600,rRNA inh HTS RFP,MLL AF4-AF9 inh
COc1cccc(-c2cnc3c(c2)C(=O)N([C@H](C)CO)C[C@H](C)[C@H](CN(C)S(C)(=O)=O)O3)c1,-2.4,1.5,-0.8,-1.9
COCCNC(=O)C[C@H]1C=C[C@@H](NS(=O)(=O)c2ccc(C)cc2)[C@H](CO)O1,0.8,2.3,-3.1,0.5
COc1ccc(CN2[C@H](CO)[C@H]3c4ccccc4N(C(=O)Nc4ccc(F)cc4)C[C@H]32)cc1,-4.1,-1.9,1.3,2.3
O=C(Nc1cccc(F)c1)N1CCCCN2[C@H](C1)[C@H](c1ccc(-c3ccccc3F)cc1)[C@@H]2CO,1.1,-46.3,27.4,-3.4
Cc1ccc(S(=O)(=O)N(C)C[C@@H]2Oc3c(NC(=O)C4CCOCC4)cccc3C(=O)N([C@@H](C)CO)C[C@H]2C)cc1,3.1,9.1,-2.9,0.8
CO[C@H]1CN(C)C(=O)c2cc(NC(=O)NC(C)C)ccc2OC[C@H](C)N(Cc2ccccc2)C[C@@H]1C,-6.5,-9.8,-0.1,3.8
COC(=O)c1ccc2nc(-c3ccccc3)c(Cc3ccccc3OC)n2c1,-3.4,-4.7,2.7,-4.6
C[C@@H]1CCCCO[C@@H](CN(C)CC2CCCCC2)[C@H](C)CN([C@H](C)CO)C(=O)c2cc(NC(=O)c3ccccc3)ccc2O1,-6.5,-26.9,16.7,27.0*
COc1ccc(-c2ccc3c(c2)O[C@H](CN(C)C(=O)c2ccccc2F)[C@H](C)CN([C@@H](C)CO)S3(=O)=O)cc1,-2.5,6.8,3.1,0.7
Cc1ccc(S(=O)(=O)N(C)C[C@@H]2Oc3ccc(NC(=O)Nc4ccc5c(c4)OCO5)cc3CC(=O)N([C@H](C)CO)C[C@@H]2C)cc1,-1.3,-8.0,-0.5,4.2
CC(C)[C@H](NC(=O)OC(C)(C)C)c1cc(C(=O)N2CCOCC2)c(N)s1,12.7,13.5,9.3,-10.3
